Compound activity (PubChem BioAssay)
Mtb growth – M. tuberculosis H37Rv growth inhibitors, H37Rv strain (AID 1626); M. tuberculosis H37Rv growth inhibition; higher % means a stronger effect; inhibition, % at 10 µM, or IC50 in µM where a hit was titrated; 220,000 compounds, 0.95% hits;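 active = confirmed in a dose series; inconclusive = inhibition above 80% but not taken into the dose series; inactive = below 80% or under 30% at every dose of the series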;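 note: bacteria incubated seven days before Alamar blue readout; 0% = bacteria only wells and 100% = bacteria with antibiotic wells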
YopH PTP inh – inhibitors of Yersinia enterocolitica YopH tyrosine phosphatase; fluorescence Ex485/Em525; inhibition, %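 (about 10 µM by stock and volumes)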; 140,000 compounds, 0.16% hits; AID 898;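 active = inhibition of 50% or more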;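 note: controls were vehicle for no effect and minimum signal wells for full effect; inactives centre near -20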
Mtb betalactam – beta-lactam sensitization of Mtb H37Rv | M. tuberculosis H37Rv growth with meropenem, percent inhibition; hits of this screen are not shown here | inhibition, % at 25 µM | 330,000 compounds, 0.27% hits | AID 434955;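 active = about 74% or more and at least 40 points above the plate without the antibiotic, then above 30% in a dose series; inconclusive = first-round hits that could not be retested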;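 note: growth measured after seven days incubation then overnight dye step; 0% = bacteria only wells and 100% = bacteria with antibiotic; twin plates without the antibiotic show which effects depend on it; some results filed as inactive read as strong as hits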
Arbovirus inh – blocks arbovirus infection. arbovirus infection cell-based antiviral screen. inhibition, % at 10 µM. 200,000 compounds, 0.37% hits;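 active = inhibition from about 30%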;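 note: bluetongue infection of BSR cells; cell survival read as ATP light after 72 h; 0% = infected wells without compound and 100% = uninfected wells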
RecA intein inh – Mtb RecA intein splicing inhibition; AID 2221; P9WHJ3; cell-free RecA intein splicing, fluorescence; inhibition, %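 (about 9 µM by stock and volumes)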; 290,000 compounds, 0.75% hits; in the data active = inhibition above about 30%; inconclusive = no clear call, values can overlap the other calls;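 note: 0% = vehicle wells and 100% = reference inhibitor control wells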
Target sequence (P9WHJ3 whole entry, looked up): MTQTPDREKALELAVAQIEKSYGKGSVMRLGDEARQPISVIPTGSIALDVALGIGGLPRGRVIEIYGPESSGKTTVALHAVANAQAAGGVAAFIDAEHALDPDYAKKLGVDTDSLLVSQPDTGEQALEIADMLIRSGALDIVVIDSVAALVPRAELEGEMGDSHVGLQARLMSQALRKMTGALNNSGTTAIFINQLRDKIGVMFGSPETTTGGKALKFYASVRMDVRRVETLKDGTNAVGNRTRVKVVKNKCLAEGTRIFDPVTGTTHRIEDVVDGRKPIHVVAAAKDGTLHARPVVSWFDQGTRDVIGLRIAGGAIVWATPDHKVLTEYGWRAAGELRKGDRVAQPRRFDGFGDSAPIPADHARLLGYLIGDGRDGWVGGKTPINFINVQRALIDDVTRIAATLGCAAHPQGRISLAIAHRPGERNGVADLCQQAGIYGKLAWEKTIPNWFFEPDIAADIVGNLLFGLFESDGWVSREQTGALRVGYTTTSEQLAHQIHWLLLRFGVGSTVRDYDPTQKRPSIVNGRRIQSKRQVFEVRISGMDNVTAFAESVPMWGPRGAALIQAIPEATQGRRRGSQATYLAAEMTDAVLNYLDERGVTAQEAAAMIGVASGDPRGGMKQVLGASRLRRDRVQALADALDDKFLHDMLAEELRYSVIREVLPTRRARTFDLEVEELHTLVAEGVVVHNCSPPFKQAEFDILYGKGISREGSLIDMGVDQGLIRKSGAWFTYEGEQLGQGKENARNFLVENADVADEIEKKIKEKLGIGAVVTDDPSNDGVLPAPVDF
Arbovirus inh repeat – recorded beside Arbovirus inh, whose call it bears; inhibition, %; measured here: 10K subset replicate screen; many hits read low in the repeat;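 first of two repeat runs on a subset; 0% = infected and 100% = uninfected wells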
An asterisk follows results filed as active; ? = inconclusive; · = no result given; & = joins results of further samples.

SMILES | Mtb growth | YopH PTP inh | Mtb betalactam | Arbovirus inh | RecA intein inh | others
COc1ccc(NC(=O)C2CCN(C(=O)NCc3ccccc3)CC2)cc1 | 0.1% | -31.8 | -8.5 | 2.9 | -2.8
Cc1cc(C(=O)CN(Cc2ccc(F)cc2)S(=O)(=O)c2ccc3c(c2)OCCO3)c(C)n1C | 3.0% | -27.2 | 8.5 | 6.2 | 8.6
CC1Cc2ccccc2N1CC(=O)Nc1ccc(Cl)c(S(=O)(=O)N(C)C)c1 (configuration not stated) | 7.8% | · | -0.9 | 20.6 | 1.3
CN1CCN(c2oc(-c3ccco3)nc2S(=O)(=O)c2ccccc2)CC1 | 3.2% | -19.8 | -1.7 | 5.1 | -4.9
CCOc1ccc(-c2cccc(NS(=O)(=O)c3cc([N+](=O)[O-])ccc3C)c2)nn1 | · | · | -16.0 | · | 6.6
CC(C)(C)C(=O)NC1CCN(S(=O)(=O)c2ccccc2F)CC1 | -4.2% | -20.2 | -6.0 | 8.0 | 3.2
CC(C)CN(CC(C)C)C(=O)C12CCC(C)(C(=O)C1)C2(C)C (configuration not stated) | -1.8% | -31.1 | -6.0 | 2.0 | -3.7
Cc1ccc2c(c1)C1CN(C)CCC1N2C(=O)c1ccccc1NS(=O)(=O)c1ccc(F)cc1 (configuration not stated) | -9.3% | -18.4 | 3.6 | -3.6 | -1.6
CCOC(=O)N1CCN(C(=O)c2cc(S(=O)(=O)N3CCCC3)cn2C)CC1 | -5.0% | -6.7 | -2.6 | 2.8 | -1.1
CCOc1ccc(C(O)c2nccn2Cc2ccccc2)cc1 (configuration not stated) | -6.2% | 0.8 | -5.8 | 8.1 | -0.6
CCc1ccccc1NC(=O)C1NC(=O)CC1c1ccccc1 (configuration not stated) | -5.2% | -35.6 | 2.9 | 8.7 | 1.6
COc1cc(C(C(=O)NC2CCCC2)N(C(=O)c2ccco2)c2ccccc2C(C)=O)cc(OC)c1OC (configuration not stated) | · | · | -2.1 | · | 0.3
CCCCN(C1CCS(=O)(=O)C1)S(=O)(=O)c1cc(C)ccc1C (configuration not stated) | · | · | -14.8 | · | -2.0
CC(C)c1nnc(NC(=O)C2CCN(c3nc4ccccc4s3)CC2)s1 | 3.2% | -32.7 | -0.8 | -11.2 | 0.5
O=C(CSc1nc2ccccc2nc1N1CCOCC1)N1CCN(c2ccccc2)CC1 | · | · | 99.5 | · | 9.9
CC(=O)N1CCN(C2=NC(=O)C(=C3CCCCC3)S2)CC1 | -4.1% | -13.8 | 7.4 | -1.0 | 0.8
CC(=O)Nc1c(O)n(C)c2ccccc12 | -7.9% | 45.3 | 3.5 | 1.0 | -1.7
Cc1cc(=O)n(CC(=O)Nc2cc(Cl)ccc2C)c(C(C)C)n1 | -7.0% | · | 5.8 | -4.9 | 0.1
O=C(CSc1nnc(-c2ccccn2)n1Cc1ccco1)Nc1ccc2c(c1)OCO2 | -4.6% | -4.0 | 4.3 | -2.0 | 8.1
CCc1ccccc1NC(=O)CCS(=O)(=O)c1ccc(OC)cc1 | · | · | -1.0 | · | -3.5
CCCCN(c1ccccc1)S(=O)(=O)N(C)C | 2.5% | · | -8.8 | -4.1 | -4.8
Cc1ccccc1CN1CCNC(=O)C1CC(=O)N(C)CCC1CCOCC1 (configuration not stated) | · | · | -4.4 | · | -0.5
CC(C)(CNC(=O)c1cc2c(s1)CCCC2)N1CCOCC1 | · | · | -3.5 | · | -2.4
CNC(=O)/C=C1\NC(C)(C)Cc2ccccc21 | -1.6% | -15.5 | -4.5 | -1.4 | 2.8
O=C(NNC(=O)c1nn(-c2ccc(F)cc2)ccc1=O)c1ccc(Cl)cc1 | 8.1% | · | 46.4 | · | -0.9
CC(C)C(NC(=O)c1c(F)cccc1F)C(=O)NCC(c1ccccc1)N(C)C (configuration not stated) | 1.1% | · | -3.1 | 5.5 | -1.2
O=C1CCCC(O)=C1C1C2=C(CCCC2=O)Oc2ccccc21 (configuration not stated) | 0.5% | -32.4 | 3.3 | 2.9 | -3.5 | Arbovirus inh repeat=-2.2
O=C(Nc1nnc(-c2ccc3c(c2)OCCO3)o1)c1ccc(Cc2ccccc2)cc1 | 1.7µM* | -39.1 | 73.5 | -18.4 | 3.2 | Arbovirus inh repeat=-20.0
Cc1onc(-c2c(Cl)cccc2Cl)c1C(=O)Nc1ccc2c(c1)OCO2 | 12.9% | -32.9 | 3.3 | -5.4 | 4.0
c1ccc(NCc2nnc3n2CCCCC3)cc1 | 0.4% | -32.4 | 3.5 | 6.3 | -0.7
O=C(C1CCN(S(=O)(=O)c2cccc3nsnc23)CC1)N1CCN(c2ccccc2F)CC1 | 0.8% | -37.1 | -9.9 | 10.1 | 0.4
CCOC(=O)[C@H](CCc1ccccc1)N[C@@H](C)C(=O)N1CCC[C@H]1C(=O)O | -8.4% | -24.3 | 0.9&-1.7 | -2.0 | -2.5
CC1(C(=O)Oc2ccccc2)Cc2ccccc2C(=O)O1 (configuration not stated) | 3.8% | · | -8.0 | 0.7 | 3.3
CC(C)SCCCOc1ccc(C(C)(C)C)cc1 | -1.3% | -32.4 | -4.3 | 8.3 | 1.5
Cn1c(O)c(/C=C/C=Nc2ccccc2)c(=O)n(C)c1=O | -4.1% | -23.7 | -0.7 | -4.5 | -2.9
CCOC(=O)C1CCCN(S(=O)(=O)CCNC(=O)c2cccc(OC)c2)C1 (configuration not stated) | · | · | -5.4 | · | 0.0
C[C@H](NC(=O)Cc1cccc2ccccc12)C(=O)N1CCCN(C)CC1 | 3.5% | · | -0.3 | 6.5 | 0.7
C=CCN(CC=C)CCOc1ccccc1 | -1.8% | -21.5 | ? | -2.3 | -1.7
O=C(COC(=O)c1ccc(S(=O)(=O)N2CCCC2)cc1)NCc1ccccc1 | 7.5% | -8.7 | 0.5 | -6.6 | -1.1
O=C(Nc1cccc2ncccc12)c1ccccc1[N+](=O)[O-] | · | · | -25.1 | · | 0.0
Cc1cc(CSc2ccccc2C(=O)O)on1 | · | · | 0.2 | · | -3.3
CCNC(=O)Oc1ccc(-c2csnn2)cc1 | 18.6% | · | -0.2 | 11.2 | 7.4
CCS(=O)(=O)CCSc1nc(C)cc(C)c1C#N | -7.5% | -2.9 | -0.4 | 9.7 | -0.8
CCCCCCn1c(SCC(=O)c2c(N)n(C)c(=O)n(C)c2=O)nc2ccccc21 | -4.3% | -2.7 | -16.3 | -4.0 | 0.5
COc1ccc(-c2cn(Cc3ccc(C)cc3)nn2)cc1 | · | · | -8.3 | · | -3.2
Clc1cccc(Cl)c1/C=C/c1nc2ccccc2[nH]1 | 10.8% | -31.7 | 9.5 | -13.3 | 15.8
COc1ccccc1CCC(=O)N1CCN(S(=O)(=O)c2cccc(F)c2)CC1 | · | · | -1.2 | · | -1.0
Cc1cccn2c(=O)nc(SCC(=O)Nc3cccc4ccccc34)nc12 | · | · | -8.6 | · | -0.3
CCOC(=O)c1ccc(N(C(=O)c2ccco2)C(C(=O)NC2CCCC2)c2ccncc2)cc1 (configuration not stated) | · | · | 2.4 | · | 1.4
COc1ccc2c(Cl)c(C(=O)NN3CCN(C)CC3)sc2c1 | 0.8% | · | -3.4 | 2.3 | -2.8
Nc1nnnn1/N=C/c1cc(Cl)ccc1O | · | · | 1.8 | · | -149.1
COc1ccc(N2CCN(C(=O)c3oc4ccccc4c3NC(=O)Cc3cccc(OC)c3)CC2)cc1 | · | · | 8.1 | · | 5.9
C#CCOC(=O)/C(=C/c1ccc(F)cc1)NC(C)=O | -12.4% | -20.2 | 96.0 | 4.3 | -2.7
COc1ccc(/C=C(\C#N)C(=O)OCC(=O)Nc2ccc(-c3nc4ccc(C)cc4s3)cc2)cc1 | 6.7% | · | -1.5 | -15.5 | -0.5
O=S(=O)(Nc1cc(Sc2cccc3cccnc23)c(O)c2ccccc12)c1ccc(F)cc1 | ? | 7.1 | 100.5 | -42.6 | 11.7
CC1=C(C(=O)OC(C)C)C(c2c[nH]c3ccccc23)n2ncnc2N1 (configuration not stated) | 6.6% | -45.6 | -5.4 | 17.4 | -2.2 | Arbovirus inh repeat=16.8
COC(=O)C1=CN(Cc2ccccc2)C=C(C(=O)OC)C1c1cc(F)ccc1F | · | · | 3.5 | · | -184.1
COc1cc(OC)cc(C(=O)NC(=S)Nc2cccnc2)c1 | 0.0% | -16.1 | 10.6 | -4.3 | 4.5
O=C(NCCCCc1ccccc1)C12CN(Cc3ccccc3)CC1C(c1cccc([N+](=O)[O-])c1)=NO2 (configuration not stated) | 5.6% | 1.2 | 1.2 | 6.2 | 1.3
Cn1cccc1C(=O)NCC(c1ccc(F)cc1)N1CCOCC1 (configuration not stated) | · | · | -5.5 | · | 0.2

(cont.)
SMILES | Mtb growth | YopH PTP inh | Mtb betalactam | Arbovirus inh | RecA intein inh | others
CCOC(=O)c1cc(C#N)c(SCC(=O)c2cc(C#N)c(SC)nc2C)nc1C | · | · | -0.1 | · | -2.5
Cc1ccsc1/C=C1\SC(N2CCOCC2)=NC1=O | 65.9% | -32.1 | 99.1 | 4.0 | 0.6
Cc1ccc(-n2nc(CC#N)c(C#N)c2N)cc1 | -9.9% | -17.7 | 3.5 | -5.6 | -0.6
O=C(Cc1ccccc1)N/N=C/c1cc(Br)cc(Cl)c1O | 3.4% | · | 0.2 | -3.1 | -0.8
O=C(COc1ccc([N+](=O)[O-])cc1)N(Cc1cccs1)C1CCS(=O)(=O)C1 (configuration not stated) | · | · | -0.5 | · | 4.6
COc1ccc(S(=O)(=O)N2CCCC(C(=O)N3CCN(C)CC3)C2)cc1Cl (configuration not stated) | · | · | -0.8 | · | 0.1
CCC(C)C1NC(=S)N(C2CCCCC2)C1=O (configuration not stated) | -8.2% | 24.9 | -12.4 | 2.4 | 0.2
CCCOc1ccc(CCN2CCC(=O)NC2=O)cc1C | 0.8% | -50.4 | -2.5 | -7.2 | 1.9
CC(=O)c1cccc(N=C2NC(=O)C(CO)(CO)S2)c1 | 0.1% | -12.0 | -5.3 | 6.7 | -4.8
O=C(CSc1nnc(SCc2ccc(Cl)cc2)s1)N/N=C/c1c(Cl)cccc1Cl | · | -22.0 | 56.4 | -0.7 | 4.3
COc1ccc2cnn(CCOc3cc(C)ccc3C(C)C)c(=O)c2c1OC | 8.4% | 6.4 | 5.7 | 4.5 | 3.8
Cc1ccc(NC(=O)CCCN2C(=S)NC(C)(C)CC2C)cc1 (configuration not stated) | 1.3% | · | 2.8 | 1.3 | -2.2

Of the compounds above, 2 have an NH in an aromatic ring.
SMILES | Mtb growth | YopH PTP inh | Mtb betalactam | Arbovirus inh | RecA intein inh | others
Clc1cccc(Cl)c1/C=C/c1nc2ccccc2[nH]1 | 10.8% | -31.7 | 9.5 | -13.3 | 15.8
CC1=C(C(=O)OC(C)C)C(c2c[nH]c3ccccc23)n2ncnc2N1 (configuration not stated) | 6.6% | -45.6 | -5.4 | 17.4 | -2.2 | Arbovirus inh repeat=16.8

Next section.
SMILES | Mtb growth | YopH PTP inh | Mtb betalactam | Arbovirus inh | RecA intein inh | others
CCOc1ccc(N(CC(=O)Nc2ccccc2C(=O)N2CCCC2)S(C)(=O)=O)cc1 | · | · | -7.4 | · | -2.4
CCN(CC(=O)Nc1c(F)cccc1F)C(=O)CCNC(=O)c1ccccc1OC | · | · | -0.1 | · | -0.7
Cc1ccc(NC(=O)C2CCCN(S(=O)(=O)c3ccc4c(c3)oc(=O)n4C)C2)nc1 (configuration not stated) | -0.1% | 9.7 | -4.8 | 7.9 | -1.5 | Arbovirus inh repeat=1.0
CCOC(=O)Cn1cc(Cl)cc(C(=O)Nc2ccccc2)c1=O | · | · | -2.2 | · | -0.6
CCCOc1ccc(C2C(C(=O)c3cc4ccccc4o3)=C(O)C(=O)N2c2cc(C)on2)cc1OC (configuration not stated) | · | · | 2.0 | · | 6.9
O=C1N(CCCl)c2ccc(Br)cc2C12OCCO2 | · | · | -14.1 | · | 6.5
COc1ccccc1N1CCN(C(=O)CSc2ncnc3scc(-c4ccccc4)c23)CC1 | 5.3% | -36.0 | -2.1 | 6.3 | 4.3
CC(=O)NC(c1cccc([N+](=O)[O-])c1)c1ccc2cccnc2c1O (configuration not stated) | · | · | 2.7 | · | 4.9
O=C(COC(=O)Cc1ccccc1)Nc1ccc(Cl)cn1 | -1.2% | · | -8.8 | 0.6 | -1.0
CCCCc1nc2cc(C(=O)NC(C)c3cnn(C)c3)ccc2o1 (configuration not stated) | · | · | -3.0 | · | 0.8
Cc1ccc(NC2=CC(=O)OC(C)C2)cc1 (configuration not stated) | 3.7% | 21.7 | 0.6 | 7.3 | -2.8
COCCn1c(C)cc(/C=C(\C#N)C(=O)OC(C)C(=O)Nc2ccc(NC(C)=O)cc2)c1C (configuration not stated) | · | · | -3.0 | · | -9.6
O=C(Cc1cccs1)N1CCN(S(=O)(=O)c2ccc(F)cc2)CC1 | 0.5% | · | 6.8 | 6.5 | -0.9

Some of the compounds tested. The share of hits here may be higher or lower than overall.
